ugtP null kill = kills S. aureus RN4220 lacking UgtP. S. aureus RN4220 ugtP deletion, OD600 growth, 16 h; some inactives read as strong as hits. growth inhibition, % (test concentration not listed). 330,000 compounds, 0.54% hits. AID 1259309;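 active = z-score under -3 and OD600 up to 0.15 on both plates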;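 also: plate controls were untreated wells for no effect and antibiotic for full effect; wells of about 80 µL received 100 nL stock; the first replicate is given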
Sa RN4220 lethal = kills Staphylococcus aureus RN4220; S. aureus RN4220 growth, OD600, 16 h; inhibition, % (test concentration not listed); 330,000 compounds, 0.33% hits;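 active = z-score of -3 or lower and OD600 up to 0.18 on both plates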;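 also: plate controls were untreated cells for no effect and reference antibiotic for full effect; stock transfer was 100 nL into about 80 µL; one replicate is shown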
PrP UTR inh = suppresses PrP 5' UTR mRNA reporter expression | cell-based PrP 5' UTR mRNA reporter, plate reader | inhibition, % (test concentration not listed) | 340,000 compounds, 0.35% hits | AID 488862;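 active = every replicate at 50% or more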;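 also: 0 = median of the neutral control wells; tested in H4 reporter cells; numbers are from one replicate; inactives centre near -14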
Bead autofluor = compound fluorescence in toxin protease inhibitor counterscreen; fluorescence intensity (concentration not given with the values); compound autofluorescence counterscreen, microsphere flow cytometry; hits give high values; 360,000 compounds, 3.1% hits;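 active = at least 3 SD above the mean of all compounds, about 16000 in these data; inconclusive = too few beads counted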;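 also: 100 nL of 1 mM stock went into each well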
BJeLR lethal = kills HRASV12-expressing BJeLR cells | inhibition, % (concentration not given with the values) | 300,000 compounds, 0.17% hits | BJeLR (HRASV12) viability, CellTiter-Glo ATP luminescence, 48 h; reference of the scale not given here;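 active = replicate mean above 50%; inconclusive = above 50% but judged a plate artefact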;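 also: 50 nL library stock added to about 25 µL; numbers are from one replicate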
Mtb hypoxia rep = Mtb hypoxia fluorescent reporter inhibition | 300,000 compounds, 0.1% hits | AID 1159583 | M. tuberculosis hypoxia-regulated fluorescent reporter, fluorescence | fluorescence inhibition, % (no concentration beside the values);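 active = 35 to 45% if threefold the growth effect, above 45% if 1.5-fold the growth effect; inactive = the rest, general growth blockers included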;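 also: wells of about 50 µL received 100 nL stock; 0% = vehicle wells and 100% = reference inhibitor wells; whole bacteria with a GFP reporter of the hypoxia response; strong numbers were not always called active; many hits fall short of the cut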
Mtb hypoxia rep growth = second read-out of Mtb hypoxia rep, no call of its own (marks repeat the call); growth inhibition, %; measured here: M. tuberculosis growth (absorbance);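 0% = vehicle and 100% = reference antibiotic; read after six days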
Numbers without * were called inactive; ? = inconclusive; · = no result given.

SMILES	ugtP null kill	Sa RN4220 lethal	PrP UTR inh	Bead autofluor	BJeLR lethal	Mtb hypoxia rep	Mtb hypoxia rep growth
C=CCNCC(=O)Nc1ccccc1SCC(=O)Nc1ccsc1C(=O)OC	0	-1.5	-23	2628	7	6	9
CC[n+]1c(C=CN(C)c2ccccc2)oc2ccc(Cl)cc21	12	7.5	·	·	·	-3	-10
COc1ccc(CNC(=O)CN(Cc2ccc(OC)cc2)C(=O)CCC(=O)Nc2ccccn2)cc1	14	0.5	-2	3862	-8	-7	-2
COC(=O)c1cc(Nc2cc(C)nc3ncnn23)cc(C(=O)OC)c1	3	-1.0	-10	5927	-7	·	·
COc1ccc(OC)c(-n2cnc3cc(C(=O)NCCCN4CCOCC4)ccc32)c1	3	-2.1	9	3326	-4	·	·
Cc1nc2cc(-c3ccc(Br)cc3)[nH]n2c(=O)c1Cl	5	3.5	-29	3627	0	14	-1
COc1ccc(CNC(=O)C(NC(C)=O)C(=O)Nc2ccc(OC)cc2)cc1 (stereo not drawn)	2	0.5	-11	5046	3	·	·
Cc1ccccc1CN(C)CC(=O)Nc1ccccc1Oc1ccccc1	2	1.9	-7	7674	-3	6	5
NC(=O)CCSC(=S)N1CCOCC1	7	-0.7	-8	4583	-1	22	2
COc1ccccc1NC(=O)c1cc2c(cc1Cl)N1CCCCCC1=NS2(=O)=O	6	3.1	-11	3535	·	5	4
CCOC(=O)C1CCCc2c1[nH]c1ccc(Cl)cc21 (stereo not drawn)	6	-1.4	-14	4828	9	0	4
COc1ccc(CNC(=O)c2cccs2)cc1	-4	2.8	-25	9811	-9	·	·
Cc1ccc(O)c(NC(=O)c2cc3nc4c(c(C(F)(F)F)n3n2)CCc2ccccc2-4)c1	-7	2.9	-17	?	6	-1	2
Cc1ccc(C(=O)NC2CCS(=O)(=O)C2)cc1S(=O)(=O)N1CCCC1 (stereo not drawn)	8	1.9	-12	4762	-1	3	8
CC1CCCCC1NC(=O)c1cc(=O)[nH]c2ccccc12 (stereo not drawn)	7	2.7	-32	4779	-1	9	5
CC(=O)N1CCN(S(=O)(=O)c2cccc(C(=O)OCN3C(=O)c4ccccc4C3=O)c2)CC1	11	3.5	-26	6121	-2	6	3
O=C1c2ccccc2C(=O)N1CCCc1c[nH]c2ccc(Cl)cc12	2	-0.3	-45	2574	-3	-7	4
O=C(CCN1CCc2ccccc21)c1ccc2c(c1)OCCO2	2	9.6	-93	1741	-9	2	8
O=c1c2ccccc2c(C=NC2CCN(Cc3ccccc3)CC2)c(O)n1Cc1ccc2c(c1)OCO2	-2	4.2	·	·	2	5	10
Cc1cc(C)c(NC(=O)C2CSCCS2)c(C)c1 (stereo not drawn)	4	1.0	-23	4198	0	9	19
CC1(C)CC2CC(C)(CN2C(=O)COC(=O)c2ccc(NC(=O)CC#N)cc2)C1 (stereo not drawn)	3	8.1	-22	·	·	3	2
CN(C)S(=O)(=O)c1cccc(C(=O)Nc2ccccc2)c1	11	3.7	-31	3573	8	8	-5
S=C(NCCCc1ccccc1)Nc1ccc(Cl)cc1	-5	2.1	-39	2007	-2	5	18
CCCCCCOc1ccc(C=NNC(=O)C2CC2)cc1	-7	0.9	·	·	·	9	4
CCOC(=O)c1cc2c(ccn2C)n1Cc1cc(C)ccc1C	59	-5.9	-23	4018	-9	15	14
CC1CCC2(CC1)NC(=O)N(CC(=O)c1ccc[nH]1)C2=O (stereo not drawn)	10	-0.5	-17	4318	-1	·	·
Cc1ccc2cc(C)c(SCC#N)nc2c1	-9	20	-13	9113	-6	6	10
CCOc1ccccc1NC(=O)C1=C(C)NC(=O)NC1c1cccc(OC)c1OC (stereo not drawn)	0	1.9	-18	6693	5	8	2
Cc1ccc(-c2nn(-c3ccccc3)cc2C(=O)Nc2ccc(C(=O)O)cc2)cc1	·	·	-25	2508	-4	·	·
Cc1cc(O)c(C(C)C)cc1N=Cc1cc([N+](=O)[O-])ccc1O	34	-0.4	-13	3468	-5	1	-3
CCN(CC)S(=O)(=O)c1ccc(/C=C/C(=O)N(c2ccccn2)C2CCCCC2)cc1	7	3.8	-6	3318	-6	14	5
CCOc1ccc(C(=O)Nc2ccc(CN3CCOCC3)cc2)cc1Cl	10	3.7	-21	3956	6	3	8
CCCN1C(=O)/C(=C/c2c(NCCCOC(C)C)nc3c(C)cccn3c2=O)SC1=S	14	14	8	4542	3	9	-1
CCC(C)c1ccc(OCC(=O)Nc2ccc(Cl)cn2)cc1 (stereo not drawn)	25	8.2	-25	10502	5	-7	6
O=C(COc1ccccc1[N+](=O)[O-])NN=C/C=C/c1ccco1	-1	2.6	·	·	·	0	-2
C=CCc1cccc(/C=N/NC(=O)C[n+]2ccccc2)c1O	·	·	-6	3935	1	·	·
COc1cccc(/C=C2\Oc3cc(OCC(=O)N4CCCC4)ccc3C2=O)c1OC	0	0.8	-26	·	-2	3	-6
COC(=O)c1ccccc1Sc1snnc1C	2	1.3	-14	4055	-2	5	2
CCc1cccc2c(C(=O)CN3C(=O)NC4(CCCCCC4)C3=O)c[nH]c12	-5	3.4	0	5190	·	8	14
O=C(CC1C(=O)NCCN1CC1CCCCC1)NCc1cc(F)ccc1F (stereo not drawn)	8	8.4	-11	4506	4	16	5

7 of the compounds above, with values under each structure:
Values in the order: ugtP null kill, Sa RN4220 lethal, PrP UTR inh, Bead autofluor, BJeLR lethal, Mtb hypoxia rep, Mtb hypoxia rep growth
- CCN(CC)S(=O)(=O)c1ccc(/C=C/C(=O)N(c2ccccn2)C2CCCCC2)cc1
  7, 3.8, -6, 3318, -6, 14, 5
- Cc1ccc2cc(C)c(SCC#N)nc2c1
  -9, 20, -13, 9113, -6, 6, 10
- O=C(COc1ccccc1[N+](=O)[O-])NN=C/C=C/c1ccco1
  -1, 2.6, ·, ·, ·, 0, -2
- CCCN1C(=O)/C(=C/c2c(NCCCOC(C)C)nc3c(C)cccn3c2=O)SC1=S
  14, 14, 8, 4542, 3, 9, -1
- COc1cccc(/C=C2\Oc3cc(OCC(=O)N4CCCC4)ccc3C2=O)c1OC
  0, 0.8, -26, ·, -2, 3, -6
- C=CCc1cccc(/C=N/NC(=O)C[n+]2ccccc2)c1O
  ·, ·, -6, 3935, 1, ·, ·
- COC(=O)c1ccccc1Sc1snnc1C
  2, 1.3, -14, 4055, -2, 5, 2

Two entries from above, comma-delimited:
SMILES,ugtP null kill,Sa RN4220 lethal,PrP UTR inh,Bead autofluor,BJeLR lethal,Mtb hypoxia rep,Mtb hypoxia rep growth
CCOc1ccccc1NC(=O)C1=C(C)NC(=O)NC1c1cccc(OC)c1OC (stereo not drawn),0,1.9,-18,6693,5,8,2
Cc1ccc(-c2nn(-c3ccccc3)cc2C(=O)Nc2ccc(C(=O)O)cc2)cc1,·,·,-25,2508,-4,·,·

Remaining list, next part
SMILES	ugtP null kill	Sa RN4220 lethal	PrP UTR inh	Bead autofluor	BJeLR lethal	Mtb hypoxia rep	Mtb hypoxia rep growth
N#Cc1c(C(F)(F)F)cc(-c2ccc(Cl)c(Cl)c2)nc1SCCN1CCOCC1	-2	-0.7	-3	9008	-5	0	5
Cc1ccc(CCNS(=O)(=O)c2ccc3c(c2)NC(=O)C(C)C(=O)N3)cc1 (stereo not drawn)	-3	-9.8	-14	5305	0	4	7
Cc1nc(N=C(N)N)nc2ccccc12	-3	4.0	-8	2215	11	0	1
O=C(COc1ccccc1Cl)Nc1cc(Cl)ccc1Oc1ccccc1	25	16	-21	2451	-6	11	1
CCc1ccccc1NC(=O)c1cccc(N2C(=O)C3C4CCC(C4)C3C2=O)c1 (stereo not drawn)	2	-1.2	-22	23495*	0	1	6
CCOC(=O)c1cc(C)sc1NC(=O)CSC1=NCCS1	12	5.1	6	?	-13	-4	-1
S=C(NCc1ccccc1Cl)NC1CCCC1	-7	-2.9	-26	2183	-7	10	7
CC(=O)N/C(=C\c1ccccc1)C(=O)OCC(=O)Nc1cc(S(=O)(=O)N(C)C)ccc1Cl	11	3.9	-11	4510	·	6	-1
O=C(/C(=C/c1ccc(Cl)cc1)c1nc2ccccc2[nH]1)c1ccccc1	53	17	-94	3983	-5	6	4
CCCCn1c(SCC(=O)N2CCCC2=O)nc2cc(S(N)(=O)=O)ccc21	3	5.1	-9	3673	·	4	-2
Nc1ncnc(Nc2cccc(F)c2)n1	-7	1.9	-40	5499	1	-11	5
O=C(Oc1ccccc1-c1csnn1)c1cccs1	6	7.2	-19	2846	-10	5	-2
O=C(O)c1ccc(COc2ccc3ccccc3c2/C=C2/NC(=O)N(c3ccccc3)C2=O)cc1	16	8.6	-26	9740	-7	4	15
Cc1cc(C(=O)Cn2nc(C(=O)O)c3ccccc3c2=O)c(C)n1-c1ccc(F)cc1	1	-5.5	-40	2149	-5	-1	-5
COC(=O)C(NC(=O)c1ccco1)(Nc1nc(C2CC2)cs1)C(F)(F)F (stereo not drawn)	1	13	11	2232	5	·	·
Cc1ccc(NS(=O)(=O)c2ccc3c(c2)NC(=O)CCS3)c(Br)c1	96*	98*	-6	5716	3	11	15
Cn1c(CNC(=O)C2CCC(=O)N(CCc3cccc(F)c3)C2)nc2ccccc21 (stereo not drawn)	2	0.6	-5	5451	-5	3	4
O=C(Nc1ccc2sccc2c1)c1cccc(N2C(=O)CCC2=O)c1	5	7.8	-41	3924	3	1	8
Cc1ccc(/C(O)=C2\C(=O)C(=O)N(C)C2c2ccc(Br)cc2)cc1 (stereo not drawn)	8	4.8	-7	4429	-2	-3	-4
CCC1(CC)NC(=O)N(CC(=O)Nc2ccc(C)cc2C)C1=O	0	-1.5	0	3275	·	3	10
O=C(Nc1ccc2c(c1)Cc1ccccc1-2)c1ccc(Br)o1	-3	-16	-37	3021	-4	11	5
CN1CC2(C(=O)c3ccccc3)CN(C)CC(C(=O)c3ccccc3)(C1)C2	-4	2.7	-21	20389*	6	3	7
O=C(CCCOc1ccccc1)N1CCCc2ccccc21	0	6.1	-60	10550	-2	15	19
O=C(COc1ccccc1)NC(NC(=S)Nc1ccccc1C(=O)O)C(Cl)(Cl)Cl (stereo not drawn)	32	2.5	-3	3361	5	3	-3
CCCn1c(CCC(=O)O)ccc1-c1cccs1	30	5.2	-20	4033	10	13	9
C=CCNC(=O)COC(=O)CCC(=O)c1cccs1	8	3.1	-16	5521	0	11	5
O=C(c1ccco1)N1CCN(C(=O)c2cccc3c2C(=O)N(Cc2cccnc2)C3)CC1	4	9.4	-25	6338	-7	-4	16
O=C(CC1C(=O)NCCN1Cc1ccc(F)c(F)c1)NCCn1cccn1 (stereo not drawn)	-4	3.3	-19	4574	-5	5	3

Source: PubChem BioAssay (several laboratories)

Outcome played no part in choosing rows; about 4% have a hit in one of these screens.
